Bioassay records as filed in PubChem.
gsp ag: qHTS for Agonist of gsp, the Etiologic Mutation Responsible for Fibrous Dysplasia/McCune-Albright Syndrome: qHTS | gsp mutant cells, cAMP HTRF, 30 min; control for the full effect not named in the record | Potency, µM (doses to about 76.9 µM), without a hit: top-dose activation (cAMP increase), usual class: activators | 340,000 tested, 0.13% active; active = well fitted activation curve with a large enough effect; inconclusive = small, poorly fitted or top-dose-only effect, or another doubt; inactive = no such curve, though single readings can be large or run the other way; cell line not stated here;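 also: phosphodiesterase inhibitor Ro 20-1724 added with compounds to block cAMP breakdown; potency is read from the fitted curve at half-maximal effect; nearly all actives have a fitted effect of over 60% in size; about a fifth of the inactives were tested at one dose only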
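Cells stably selected in G418 were plated at 2000/well, grown 16-24 hr, then given compounds in DMSO with the PDE inhibitor […] (300 uM solution added) for 30 min at 37C; cAMP was read by HTRF.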
D2 ag: Beta-Arrestin HTS for Positive Allosteric Modulators of the Human D2 Dopamine Receptor: Agonists; DiscoveRx PathHunter D2 beta-arrestin, luminescence, 90 min; 100% = 57 uM dopamine signal; activation, % (no concentration beside the values); 360,000 tested, 0.084% active; AID 624465, 2012; in the data active = activation above about 40%; inconclusive = about 15% to 40%; inactive = below about 15%; also: compound concentration not given in the record; the text of the record calls up to 30% inactive
Target sequence (P14416 whole entry, looked up): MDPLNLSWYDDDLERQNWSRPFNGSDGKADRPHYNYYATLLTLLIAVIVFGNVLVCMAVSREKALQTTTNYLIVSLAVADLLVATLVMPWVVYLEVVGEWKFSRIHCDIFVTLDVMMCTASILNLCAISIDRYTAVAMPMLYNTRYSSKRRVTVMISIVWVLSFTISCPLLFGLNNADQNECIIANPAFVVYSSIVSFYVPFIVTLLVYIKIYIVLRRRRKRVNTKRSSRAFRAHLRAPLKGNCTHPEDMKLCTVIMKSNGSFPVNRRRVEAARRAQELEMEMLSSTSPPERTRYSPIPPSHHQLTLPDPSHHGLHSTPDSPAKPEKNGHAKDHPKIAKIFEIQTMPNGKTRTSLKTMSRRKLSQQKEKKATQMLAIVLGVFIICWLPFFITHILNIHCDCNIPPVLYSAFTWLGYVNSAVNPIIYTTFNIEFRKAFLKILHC
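Agonist mode: compounds alone added to overnight-plated D2 PathHunter cells for 90 min at 37 C, with 57 uM final dopamine (EC100) defining full response. Beta-arrestin recruitment detected by chemiluminescent reagent, read after 1 h at ambient temperature.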
Sfp inh: qHTS Assay for Inhibitors of Bacillus subtilis Sfp phosphopantetheinyl transferase (PPTase); 4'-phosphopantetheinyl transferase ffp (Bacillus subtilis), Q9F4F7; Biochemical Sfp PPTase activity, qHTS; Potency, µM, without a hit: max response, negative = inhibition, most hits filed as inhibitors; 310,000 tested, 3.5% active; active = well fitted inhibition curve with a large enough effect; inconclusive = small, poorly fitted or top-dose-only effect, or another doubt; inactive = no such curve, though single readings can be large or run the other way;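 also: the enzyme is Sfp with the accession as filed and its product quenches rhodamine fluorescence; potency is read from the fitted curve at half-maximal effect; 0% = enzyme reaction without inhibitor and -100% = no enzyme wells; top concentration of the series not given in the record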
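Fluorescence-quenching assay: 15 nM Sfp-PPTase preincubated 15 min at room temperature with compound, then 5 uM rhodamine-CoA and 12.5 uM BHQ-2-labelled YbbR peptide added. Fluorescence (ex 525/em 598 nm) read at start and after 30 min; difference gives rate.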
PINK1 expr mod: A Quantitative High throughput Screen to Identify Chemical Modulators of PINK1 Expression; PINK1 immunofluorescence, high-content cytometry, 24 h; Potency, µM (doses to about 76.6 µM), for the others: top-dose activation (PINK1 increase), actives largely listed as activators; 410,000 tested, 0.2% active; active = well fitted activation curve with a large enough effect; inconclusive = small, poorly fitted or top-dose-only effect; inactive = flat fitted curve, though single readings scatter; cell line not stated here;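 also: potency is read from the fitted curve at half-maximal effect; % of control where 0% means no effect; nearly all actives have a fitted effect of over 65% in size; a mitochondrial uncoupler was the plate control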
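A stable cell line was treated with compounds at 5 concentrations for 24 hours, with CCCP as control. PINK1 levels and mitochondrial localization were measured by immunofluorescence with mitochondrial, cell and nuclear markers after fixation, read by laser-scanning cytometry.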
ClpP mod: qHTS Assay for Activators of ClpP; ATP-dependent Clp protease proteolytic subunit (Bacillus subtilis (strain 168)), P80244; purified B. subtilis ClpP, FRET peptide cleavage, 20 min; Potency, µM (top dose mostly 57.5 µM), for the others: top-dose activity change, negative = active; 340,000 tested, 1.9% active; AID 651965, 2013; active = well fitted falling curve with a large enough effect; inconclusive = small, poorly fitted or top-dose-only effect; inactive = no such curve, though single readings can be large or run the other way; also: potency is read from the fitted curve at half-maximal effect; the source files actives as falling curves though it sought activators and does not explain the sign; nearly all actives have a fitted effect of over 65% in size; many hits overshoot -100%
Target sequence (P80244 whole entry, looked up): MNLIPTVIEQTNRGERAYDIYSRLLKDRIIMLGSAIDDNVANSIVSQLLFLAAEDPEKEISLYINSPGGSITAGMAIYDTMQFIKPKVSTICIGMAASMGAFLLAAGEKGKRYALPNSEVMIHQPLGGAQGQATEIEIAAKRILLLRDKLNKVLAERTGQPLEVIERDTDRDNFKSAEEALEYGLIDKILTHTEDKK
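ClpP 10 microg/mL final, pH 8 Tris/KCl buffer with BSA, glycerol, Tween-20; compound pinned in; FRET-FV substrate; RT 20 min; Ex320/Em430; ΔFRET vs ADEP 5.8 microM, DMSO, no enzyme.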
Menin-MLL FL inh: qHTS Assay for Inhibitors Targeting the Menin-MLL Interaction in MLL Related Leukemias: Competition With Fluorescein Labeled MLL-derived Peptide; Fluorescence polarization, fluorescein-MLL peptide displacement from menin; FP activity change, % at 61.4 µM; 290,000 tested, under 10 active; inconclusive = falling polarisation curve, or a change in total fluorescence; inactive = total fluorescence flat and polarisation flat or rising; no compound was filed as active; the % refers to the polarisation; negative = inhibition;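 also: % of control where 0% means no effect; inhibitors lower the polarisation; unlabelled MLL peptide was the positive control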
gsp antag: qHTS for Antagonists of gsp, the Etiologic Mutation Responsible for Fibrous Dysplasia/McCune-Albright Syndrome: qHTS; Potency, µM (highest dose often 76.9 µM), inactives show at the highest dose activity change, negative = inhibition, most hits filed as inhibitors; 340,000 tested, 0.4% active; gsp-mutant cells, cAMP HTRF, 30 min; control for the full effect not named in the record; active = falling curve of any shape with a large fitted effect; inconclusive = falling curve, mostly with a smaller effect; inactive = flat or rising curve; cell line not stated here;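 also: intracellular cAMP measured with PDE inhibitor Ro 20-1724 present during compound exposure; potency is read from the fitted curve at half-maximal effect; % is scaled to controls: 0 for no effect and ±100 for the full control effect; nearly all actives have a fitted effect of over 65% in size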
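Measurement of cellular cAMP by homogeneous time-resolved fluorescence following a 30 min compound exposure at 37C. The PDE inhibitor […] was present throughout; the assay buffer was DPBS with 0.05% BSA and 0.005% Tween 20.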
* marks the source's active call; other numbers are inactive results; ? = inconclusive; / = no result given; & = joins results of further samples; [ ] = another dose, or the depositor's remark. An unsorted share of the library; any-hit rate near 5.1%.

SMILES	gsp ag	D2 ag	Sfp inh	PINK1 expr mod	ClpP mod	Menin-MLL FL inh	gsp antag
COc1cc(/C=N/Nc2ccc(Cl)cc2)ccc1OC(=O)c1cccs1	-24%	1.4	6%	-0.3%	-1.8%	3.4	6%
Cn1c(N)c(C(=O)COC(=O)/C=C/c2cccc(Cl)c2)c(=O)n(C)c1=O	-2%	2.7	/	1.4%	-0.7%	/	-6%
Cn1c(=O)n(CCOc2ccccc2Cl)c2ccccc21	?	-4.4	-15%	0.3%	0.6%	3.9	-4%
Cc1ccc2c(c1)nnn2C1CCN(S(=O)(=O)c2cccc(S(=O)(=O)N(C)C)c2)CC1	18%	1.7	11%	0.1%	1.4%	-0.2	25µM*
C=CCN(c1ccccc1)S(=O)(=O)c1cccc(C(=O)N(CC)CC(=O)Nc2c(F)cccc2F)c1	2%	-3.2	14%	-0.8%	-1.6%	/	-2%
CC(CN(C)Cc1ccccc1)OC(=O)c1ccc(F)cc1 (stereo unspecified)	-57%[inhibitor]	-1.4	2%	13%	0.8%	2.6	10%
CCOC(=O)CC(=O)CSc1nc2cc(C)ccc2cc1C	0%	-5.7	-16%	0.7%	1.0%	-2.8	15%
CN1CCN(c2ccc(NC(=O)c3ccc(Br)o3)cc2)CC1	16%	-0.6	3%	-0.7%	0.2%	/	-4%
CC(=O)N(C(C)=O)c1ccc(Oc2ccc(Oc3ccc(N(C(C)=O)C(C)=O)cc3)cc2)cc1	-37%[inhibitor]	0.4	/	2.7%	0.3%	/	/
N=c1c2c(ncn1CCCO)Oc1ccc3ccccc3c1C2c1ccccc1 (stereo unspecified)	5%[15.4 µM]	1.1	-7%	-1.0%	/	-1.8	-3%
COc1ccc2ccccc2c1/C=N/NC(=O)c1sc(N)c(C#N)c1C	-14%	3.7	9%	12%	-20%	?	-2%
CC1CC(C)CN(CCCNC(=O)c2cn(C)c3ccc(S(=O)(=O)N4CCCC4)cc3c2=O)C1 (stereo unspecified)	-2%[15.4 µM]	-1.1	7%	-2.2%	/	4.3	10%
O=C(Nc1cccc(Cl)c1Cl)Nn1cnnc1	13%	-0.1	-2%	-0.9%	-2.3%	-3.7	9%
COc1cccc(-n2c(=O)[nH]cc(C(=O)Nc3ccc(NC(C)=O)cc3)c2=O)c1	?	-6.4	-1%	2.6%	-1.6%	0.2	2%
O=C(NN1C(=O)C2C3C=CC(O3)C2C1=O)c1cccc(O)c1 (stereo unspecified)	?	-2.0	45µM*	0.8%	4.6%	-2.8	3%
O=C(NCCCN1CCN(Cc2ccccc2)CC1)C1CCN(S(=O)(=O)N2CCC3(CC2)OCCO3)CC1	14%	4.0	13%	-1.5%	0.6%	-0.1	9%
COc1ccc(S(=O)(=O)N2CCCC(C(=O)Nc3cccnc3)C2)cc1Cl (stereo unspecified)	-33%[inhibitor]	2.5	-10%	-1.7%	-2.9%	-1.7	?
CCOC(=O)C(NCc1ccc(OC)cc1)(NC(C)=O)C(F)(F)F (stereo unspecified)	-3%	-1.8	11%	0.0%	-2.1%	-0.1	5%
Cn1c(=O)c2c(nc3n2CCS3)n(C)c1=O	1%	-1.0	10%	-1.6%	-0.9%	-2.2	10%
FC(F)(F)C1=Nc2cccc3cccc(c23)N1	5%[15.4 µM]	3.8	/	-0.3%	-0.6%	/	3%
COc1ccc(C(=O)/C=C/N(C)C)cc1OC	1%	-3.1	10%	-0.9%	0.5%	6.9	-2%
CCOC(=O)C1=C(C)NC(=O)NC1c1ccc(OC)c(Cl)c1 (stereo unspecified)	16%	-1.2	18%	3.2%[38.3 µM]	1.2%	-0.5	-20%
OCC1(Cc2ccc(F)cc2F)CCCN(Cc2ccc(Cl)cc2)C1 (stereo unspecified)	-256%	6.0	15%	-0.2%	1.5%	0.7	9%
CC1CCCN(C(=O)c2cc(S(=O)(=O)N3CCCCC3)c[nH]2)C1 (stereo unspecified)	24%	8.2	14%	0.1%	0.3%	-2.3	-6%
COC(=O)C1=C(C)N(Cc2ccccc2)C(=NCC2CC2)N[C@H]1c1ccccc1	14%	-1.0	12%&-14%	?	-8.1%	?	8%
Continuation:
SMILES	gsp ag	D2 ag	Sfp inh	PINK1 expr mod	ClpP mod	Menin-MLL FL inh	gsp antag
CN=C(Nc1ccc2c(c1)OCO2)SC1CC(=O)N(c2ccccc2)C1=O (stereo unspecified)	-48%[inhibitor]	-2.1	-12%	31%[38.3 µM]	-2.1%	-4.5	-3%
CN(C)CCCN(C(=O)c1sc2ccccc2c1Cl)c1nc2ccc(F)cc2s1	?	-3.6	-20%	?	-1.4%	6.0	-16%
COc1ccccc1N(CC(=O)NCC(C)C)S(=O)(=O)c1cccs1	15%[15.4 µM]	-5.7	-3%	0.4%	-1.5%	2.0	9%
S=c1[nH]nc(COc2ccc(Cl)cc2Cl)n1-c1ccccc1	1%	-5.3	11%	-1.4%	0.7%	-2.9	-14%
CCN(C(=O)CSc1nc(C)nc2sc3c(c12)CCC3)C1CCS(=O)(=O)C1 (stereo unspecified)	?	-2.1	/	-2.1%	/	/	-10%
O=C(N/N=C/c1ccc(Br)o1)c1ccc2c(c1)OCCO2	1%	-0.5	-12%	1.8%	-4.1%	4.8	-5%
CCNC(=S)NNC(=O)c1csc(CC)c1	2%	-5.2	13%	-3.8%	-2.9%	5.9	10%
CC(=O)NC1(c2ccccc2)CCN(c2cc(C)nc(-c3ccccc3)n2)CC1	0%[15.4 µM]	-2.5	1%	0.4%	/	3.9	-4%
Cc1ccc(-c2cc(-c3ccccc3)no2)cc1	/	-1.8	/	8.0%	-0.5%	/	-1%
Cn1c(=O)[nH]c2c(nc(-c3ccc(Cl)cc3)n2C)c1=O	-4%[15.4 µM]	4.5	6%	-1.6%	/	?	6%
CCOc1ncccc1C(=O)NCc1ccc(C)cc1	6%	-3.6	15%	2.2%	-5.4%	-0.9	13%
Cc1ccccc1Cn1nc(C)c(NC(=O)c2nc3n(n2)C(C(F)F)CC(C)N3)c1C (stereo unspecified)	-37%[inhibitor]	-2.2	15%	0.7%	-0.7%	4.1	-4%
CCC(=O)Nc1c(C(=O)N2CCN(c3ccccn3)CC2)cnn1-c1ccc(C)cc1	?	-0.9	0%	-1.5%	?	3.0	3%
CN(c1ccccc1)S(=O)(=O)c1cccc(NC(=O)CCNC(=O)c2ccco2)c1	?	2.0	/	-0.2%	245%	/	/
Cc1ccc(C)c(N2CCN(C(=O)c3ccc(Cl)c(NC4=NC5CS(=O)(=O)CC5S4)c3)CC2)c1 (stereo unspecified)	16%	-1.7	1%	2.0%	0.6%	/	-8%
COCCn1nnnc1SCC(=O)c1ccc(F)cc1	-18%	-7.6	?	0.6%	-0.3%	0.8	15%
O=C(CSc1nc2ccccc2c(=O)n1-c1ccc(F)cc1)NCc1ccco1	-17%	1.6	1%	1.3%[38.3 µM]	0.4%	1.3	-2%
CC(CNS(=O)(=O)c1cc(Cl)ccc1Cl)CN(C)C (stereo unspecified)	24%	-0.9	0%	-0.8%	-2.7%	2.1	12%
CC(C)c1c(Cl)c(O)c(-c2ccccc2)c(=O)n1-c1ccc(F)cc1	2%	-2.6	?	2.5%	0.8%	-1.1	0%
O=C(CCCC(=O)N(c1ccc2c(c1)OCCO2)C(C(=O)NC1CCCCC1)c1ccc(F)cc1)Nc1ccccn1 (stereo unspecified)	-3%	-1.8	9%	/	-0.8%	3.6	2%
CCC(c1nnnn1Cc1ccccc1)N1CCN(C/C=C/c2ccccc2)CC1 (stereo unspecified)	/	5.7	/	2.4%	-0.3%	/	/
Cc1occc1-c1nnc(SCC(=O)N2CCc3ccccc32)o1	-20%	-3.8	-4%	-0.3%	0.2%	2.0	-2%
COc1cccc(-c2cnc(C(O)c3ccc(C)cc3)[nH]2)c1 (stereo unspecified)	/	-4.0	/	0.2%	-1.6%	/	/
COc1cccc2c(=O)cc(C)n(CC(=O)Nc3ccccc3C)c12	1%	-0.4	-2%	0.9%	13µM*	1.8	-28%
COc1ccc([C@H]2CC(=O)C=C(c3ccc4ccccc4c3)C2)cc1OC	/	-0.4	/	-1.0%	-2.1%	/	-17%
Cc1ccc(NC(=O)N2CCCc3ccccc32)cc1	6%[15.4 µM]	-4.7	14%	1.8%	-0.1%	-3.2	-5%
Cc1ccc(N2CC(C(=O)NCCS(=O)(=O)N3CCN(c4ccc(F)cc4)CC3)CC2=O)cc1 (stereo unspecified)	-4%	0.2	9%	-1.8%&0.8%	1.9%&-0.1%	1.8	15%
Cc1ccc(OCCCn2cc(C#N)c3ccccc32)cc1	-8%	-1.2	0%	-1.2%[38.3 µM]	-0.3%	3.5	-7%
O=C(Nc1cc(Cl)ccc1-n1cncn1)c1ccccc1OC(F)F	-13%[15.4 µM]	-1.6	/	-3.2%	/	/	1%
COCCCNC(=O)c1ccc(S(=O)(=O)c2ccc(C)cc2)c(NC(C)=O)c1	1%	1.0	8%	-2.4%	-4.0%	0.6	3%

Compound profiles (already shown).
CN(c1ccccc1)S(=O)(=O)c1cccc(NC(=O)CCNC(=O)c2ccco2)c1 is entered as gsp ag: ?; D2 ag: 2.0; Sfp inh: /; PINK1 expr mod: -0.2%; ClpP mod: 245%; Menin-MLL FL inh: /; gsp antag: /
O=C(Nc1cc(Cl)ccc1-n1cncn1)c1ccccc1OC(F)F is entered as gsp ag: -13%[15.4 µM]; D2 ag: -1.6; Sfp inh: /; PINK1 expr mod: -3.2%; ClpP mod: /; Menin-MLL FL inh: /; gsp antag: 1%
